FEN1 inhibitor – human FEN1 inhibition; P39748; Recombinant FEN1 flap cleavage, fluorescence, 15 min; Potency, µM (highest dose often 114 µM), without a hit: at the top dose activity change, negative = inhibition, actives largely listed as inhibitors; 0.35% of 390,000 active; also: nearly all actives have a fitted effect of over 65% in size
Target sequence (P39748 whole entry, looked up): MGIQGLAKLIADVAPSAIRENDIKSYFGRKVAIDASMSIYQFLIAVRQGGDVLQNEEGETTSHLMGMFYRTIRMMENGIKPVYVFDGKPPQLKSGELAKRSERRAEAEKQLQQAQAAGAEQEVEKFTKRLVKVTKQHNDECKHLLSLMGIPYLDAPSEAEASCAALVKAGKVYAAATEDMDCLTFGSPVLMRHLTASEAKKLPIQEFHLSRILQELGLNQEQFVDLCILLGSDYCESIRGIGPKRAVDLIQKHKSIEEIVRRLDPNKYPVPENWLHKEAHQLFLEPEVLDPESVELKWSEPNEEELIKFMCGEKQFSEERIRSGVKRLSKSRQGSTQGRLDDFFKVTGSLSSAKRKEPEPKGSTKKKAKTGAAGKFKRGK
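Reaction started by adding substrate (50 nM final) to 10 nM enzyme after 15 min room-temperature compound preincubation. Reads at 0 and 15 min, with data normalized and fitted to a four-parameter Hill equation.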
GCN5L2 inh – GCN5L2 (KAT2A) acetyltransferase inhibition. AID 504327. GCN5L2 HAT assay, ThioGlo1 CoA-SH fluorescence. Potency, µM (titrated, usually from 58.9 µM), without a hit: top-dose activity change, negative = inhibition, hits mostly inhibitors. 0.21% of 390,000 active. Q92830
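Preincubate 20nM GCN5L2 with compound 15 min, RT → add 50uM ThioGlo1 + 75uM H3(1-25) + 70uM acetyl-CoA → read fluorescence 0 and 20 min. Primary qHTS; fluorescent artifacts likely.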
* hit, by the source's call; ? = inconclusive; & = joins results of further samples; [ ] = dose if it differs, or a comment. Calls follow the shape of the dose curve; as a rule, active = well fitted curve in the direction sought with a large enough effect; inconclusive = small, poorly fitted or top-dose-only effect, or another doubt; inactive = no such curve, though single readings can be large; an effect the other way counts as inactive or inconclusive. % is scaled to controls: 0 for no effect and ±100 for the full control effect; potency is read from the fitted curve at half-maximal effect.

[1] COc1cccc(CNc2ccc3c(c2)ncn3C)c1OC
[2] Cc1cc(OCC(=O)NC(C)C)cc(C)c1Cl
[3] COc1ccc(-c2nc(C#N)c(NCCc3ccccc3)o2)cc1OC
[4] CC(OC(=O)c1cccnc1)C(=O)NCc1ccc2c(c1)OCO2 (configuration not stated)
[5] NS(=O)(=O)c1ccc(CCNC(=O)CCc2nc3sc4c(c3c(=O)[nH]2)CCCC4)cc1
[6] CC(=O)NS(=O)(=O)c1ccc(NC(=O)C2c3ccccc3Oc3ccccc32)cc1
[7] COc1ccc(OCC(O)CNC(=O)Nc2cc(F)ccc2C)cc1 (configuration not stated)
[8] CCc1nnc(NC(=O)c2cccc(S(=O)(=O)N3CC(c4ccccc4)CC3=O)c2)s1 (configuration not stated)

Screen / compound no. | 1 | 2 | 3 | 4 | 5 | 6 | 7 | 8
FEN1 inhibitor | -5%&0% | -2% | -9% | -3% | 0% | -1% | 2% | -13%
GCN5L2 inh | -26%&2% | -1% | -12% | 1% | -23% | -4% | -5% | 0%

3 entries from above, sorted by the number in GCN5L2 inh, low to high:
cpd	molecule	GCN5L2 inh
3	COc1ccc(-c2nc(C#N)c(NCCc3ccccc3)o2)cc1OC	-12%
2	Cc1cc(OCC(=O)NC(C)C)cc(C)c1Cl	-1%
4	CC(OC(=O)c1cccnc1)C(=O)NCc1ccc2c(c1)OCO2 (configuration not stated)	1%

The list continues:
[9] Cc1ccccc1C(=O)NC1CCN(CC(=O)NC2CCCCC2)CC1
[10] CN(c1ccccc1)S(=O)(=O)c1ccc(C(=O)Nc2nccs2)cc1
[11] O=C(/C=C/Nc1ccc(F)c(Cl)c1)c1ccccc1
[12] Cc1ccc(C(=O)NC2CCN(C(=O)Nc3ccc(F)cc3)CC2)cc1
[13] CCOC(=O)CN(Cc1sccc1C)C(=O)Nc1ccc(OC)cc1OC
[14] CCOC(=O)c1c(NC(=O)CSc2cn(CCNC(=O)c3ccc(OC)c(OC)c3)c3ccccc23)sc2c1CCC2
[15] COc1ccc(N2C(=O)c3cccc4cccc(c34)C2=O)nn1
[16] O=C(COc1ccc(Cl)cc1Cl)Nc1noc2ccccc12

Screen / compound no. | 9 | 10 | 11 | 12 | 13 | 14 | 15 | 16
FEN1 inhibitor | 16% | 42%[activator] | -1% | 8% | -3% | 6% | -12% | -4%
GCN5L2 inh | -3% | -7% | -5% | -1% | 0% | -3% | 1% | -6%

[17] CCN(C(=O)CSc1nc2ccccc2n1Cc1ccc(F)cc1Cl)c1ccccc1
[18] Cc1ccc[n+](CC(=O)N2CCCCC2)c1C
[19] CCOc1ccc(S(=O)(=O)N2Cc3ccccc3CC2C(=O)Nc2ccc(NC(C)=O)cc2)cc1 (configuration not stated)
[20] CN1C(=O)C2(c3ccccc31)N(C)CC(c1ccccn1)C21SC(=S)N(Cc2ccco2)C1=O (configuration not stated)
[21] CCSc1nnc(NC(=O)[C@@H](NC(=O)c2cc(OC)cc(OC)c2)C(C)C)s1
[22] Cc1cnc(C(=O)OC(C)C(=O)Nc2ccc3c(c2)OCCO3)cn1 (configuration not stated)
[23] CCOc1ccc(C(CC(=O)O)NC(=O)COc2ccccc2)cc1OC (configuration not stated)
[24] Cc1nn(C)cc1C1C(C#N)=C(N)N(c2ccc(F)c([N+](=O)[O-])c2)C2=C1C(=O)CCC2 (configuration not stated)

Screen / compound no. | 17 | 18 | 19 | 20 | 21 | 22 | 23 | 24
FEN1 inhibitor | 11% | 1% | -26% | -4% | 2% | 3% | 5% | -5%
GCN5L2 inh | 22% | 13% | -3% | -14% | -2% | -2% | -6% | -3%

[25] COC(=O)c1ccccc1S(=O)(=O)C(C)(C)C
[26] Cc1ccc(C)c(NC(=O)COC(=O)c2cccc(S(=O)(=O)N3CCCCC3)c2)c1
[27] Cc1cccc(NC(=O)C2CCN(S(=O)(=O)c3ccc(Cl)cc3)CC2)n1
[28] CCCCSc1ccc(NC(=O)c2cccnc2)cc1
[29] O=C(O)CC(NS(=O)(=O)c1c(F)cc(F)cc1Br)c1ccccc1Cl (configuration not stated)
[30] CC(NC(=O)CNC(=O)c1sc2ccccc2c1Cl)c1cccnc1 (configuration not stated)
[31] Oc1cc2c(cc1CN1CCN(c3ncccn3)CC1)OCO2
[32] CCOc1ccc(CCNC(=O)CN2CCN(Cc3ccc(F)cc3Cl)C2=O)cc1OCC

Screen / compound no. | 25 | 26 | 27 | 28 | 29 | 30 | 31 | 32
FEN1 inhibitor | -3% | 6% | -4% | 1% | -5% | -6% | 5% | -4%
GCN5L2 inh | 2% | -2% | -1% | -6% | -3% | -11% | -1% | -3%

[33] CCCCc1n[nH]c(=S)n1Cc1ccc(Cl)cc1
[34] O=C(CSc1nnc(COc2ccc(Cl)cc2Cl)o1)Nc1ccccn1
[35] Cc1ccc(S(=O)(=O)CC(=O)c2ccc(C)c([N+](=O)[O-])c2)cc1
[36] Cc1cc(OC(C)C(=O)N(Cc2ccc(N(C)C)cc2)Cc2ccco2)ccc1Cl (configuration not stated)
[37] COc1ccccc1-c1oc2ccccc2c1-c1ccccc1OC
[38] C=CCN(Cc1ccc(Cl)s1)C(=O)c1ccc(F)c(S(=O)(=O)N2CCOCC2)c1
[39] CN(C(=O)C1CCC(=O)N(C2CC2)C1)C1CCCCC1 (configuration not stated)
[40] Cc1oc(-c2ccccc2F)nc1CSCC(=O)NC1CCC(C)CC1 (configuration not stated)

Screen / compound no. | 33 | 34 | 35 | 36 | 37 | 38 | 39 | 40
FEN1 inhibitor | -7% | 4% | -2% | 1% | ? | -14% | 1% | -13%
GCN5L2 inh | -9% | -43% | 5% | -3% | -7% | 0% | -1% | -1%

[41] O=C(Cc1c(Cl)cccc1Cl)NCCc1ccc(Cl)cc1
[42] CCOc1ccc(S(=O)(=O)N(C)CCO)cc1-c1nc2c(C(C)(C)C)nn(C)c2c(=O)[nH]1
[43] O=C(NC(=S)N1CCCC1)c1cccc([N+](=O)[O-])c1
[44] COc1ccc(-c2nc3cnccn3c2NCc2ccccc2)cc1SC1CCCCC1
[45] O=C(CCN1C(=O)COc2ccccc21)N1CCCCC1
[46] COc1cc(OC)cc(-n2c(=O)c3ccccc3n(Cc3ccccc3C#N)c2=O)c1
[47] COc1cc(C(=O)N(Cc2cccnc2)c2nc3cc(C)c(C)cc3s2)cc(OC)c1OC
[48] CC(C)COc1ccc(C2=NC(c3ccncc3)=Nc3ccc(F)cc3N2)cc1

Screen / compound no. | 41 | 42 | 43 | 44 | 45 | 46 | 47 | 48
FEN1 inhibitor | 9% | 6% | 0% | -11% | -4% | 14% | -1% | 15%
GCN5L2 inh | -4% | -3% | -9% | ? | -9% | -4% | -17% | -3%

[49] CC(C)c1ccc(NS(=O)(=O)c2ccc(N3C(=O)CCC3=O)cc2)cc1
[50] O=S(=O)(c1ccc(Br)cc1)N1CCN=C1SCc1cccnc1
[51] CC(=O)CCc1ccc(OCCCCn2cncn2)cc1
[52] Cc1cc(C)cc(OCC(=O)OCC(=O)Nc2c(C)n(C)n(-c3ccccc3)c2=O)c1
[53] Cc1ccc(-n2nc(C)c3c(C(F)(F)F)cc(-c4cccnc4)nc32)cc1C
[54] O=C(CC1SC2=NCCN2C1=O)Nc1ccccc1 (configuration not stated)
[55] COc1cc(Cl)c(S(=O)(=O)NCc2ccccn2)cc1Cl
[56] C/C(=N\NC(=O)CNc1cccc(C)c1)c1ccc(Br)s1

Screen / compound no. | 49 | 50 | 51 | 52 | 53 | 54 | 55 | 56
FEN1 inhibitor | -10% | 15% | -8% | 7% | -8% | -10% | -3% | -13%
GCN5L2 inh | ? | -6% | -4% | -4% | 0% | -5% | -5% | -3%

Ordered by count of non-hydrogen atoms (highest first): some entries from above
[49] CC(C)c1ccc(NS(=O)(=O)c2ccc(N3C(=O)CCC3=O)cc2)cc1
[50] O=S(=O)(c1ccc(Br)cc1)N1CCN=C1SCc1cccnc1
[54] O=C(CC1SC2=NCCN2C1=O)Nc1ccccc1 (configuration not stated)

Screen / compound no. | 49 | 50 | 54
FEN1 inhibitor | -10% | 15% | -10%
GCN5L2 inh | ? | -6% | -5%

Next section.
[57] CN1CCNC(=O)C1CC(=O)NCC1(c2ccccc2)CCCCC1 (configuration not stated)
[58] CC(C)C(c1nnnn1CCc1ccccc1)N1CCSCC1 (configuration not stated)
[59] COc1ccc(/C=N/NC(=O)CC(=O)NCc2cccnc2)cc1[N+](=O)[O-]
[60] COc1ccc(CCC(=O)Nc2cccc(S(=O)(=O)N3CCCC3)c2)cc1OC
[61] CCN(CC(=O)Nc1c(F)cccc1F)C(=O)C1CCC1
[62] Cn1cc(SCC(=O)Nc2nc3ccccc3s2)c2ccccc21
[63] Cc1noc(C)c1S(=O)(=O)Nc1ccc(C(C)C)cc1
[64] Cn1cccc1C(=O)C(=O)Nc1cccc(Cl)c1Cl

Screen / compound no. | 57 | 58 | 59 | 60 | 61 | 62 | 63 | 64
FEN1 inhibitor | 14% | -12% | 20% | 4% | -1% | ? | -16% | 0%
GCN5L2 inh | -1% | -1% | -22% | 1% | 0% | -17% | -8% | -7%

[65] COCC(C)n1c(C)cc(C(=O)CSc2nnnn2-c2ccc(O)cc2)c1C (configuration not stated)
[66] Cc1ccc(CNC(=O)CSc2nccn(-c3ccc(C)c(F)c3)c2=O)cc1
[67] O=C(Nc1cc(C(F)(F)F)ccc1N1CCOCC1)c1ccc(Cl)nc1
[68] C=CCN(C(=O)CC(NC(C)=O)c1ccccc1)c1nc(-c2ccc(S(C)(=O)=O)cc2)cs1 (configuration not stated)
[69] CCOC(=O)c1ccc(NC(=O)N2CCN(Cc3ccccc3)CC2)cc1
[70] CCN(CC#CCC(O)(c1ccccc1)C1CCCC1)C(C)C (configuration not stated)
[71] COc1ccc2nc(SCC(=O)NCc3ccc4c(c3)OCO4)[nH]c2c1
[72] CC(C)Oc1ccc(C(=O)O)c(C(=O)O)c1

Screen / compound no. | 65 | 66 | 67 | 68 | 69 | 70 | 71 | 72
FEN1 inhibitor | -9% | 15% | -1% | 4% | -12% | -2% | -7% | -2%
GCN5L2 inh | -8% | 0% | -4% | -2% | -8% | -10% | 3% | -12%

[73] CC(NC(N)=O)C(=O)OCc1ccc(Cl)cc1Cl (configuration not stated)
[74] Cc1ccc2c(c1)C(=O)C(=O)N2CC(=O)Nc1ccc(N2CCOCC2)cc1
[75] COc1ccc(OC)c(NC(=O)c2c(NCc3ccc(OC)c(OC)c3)sc3c2CCC(C)C3)c1 (configuration not stated)
[76] O=C(Nc1ccc(S(=O)(=O)N2CCCC2)cc1)c1ccc([N+](=O)[O-])o1
[77] CCOC(=O)C1=CC[C@H]2c3c(c4ccccc4n3C)C(=O)C1N2Cc1ccccc1
[78] O=C(Nc1ccc(Cl)cc1)Nc1ccccc1C(=O)NCc1ccco1
[79] Cc1noc(C)c1S(=O)(=O)N1CCCC(C(=O)N2CCC(C)CC2)C1 (configuration not stated)
[80] Cc1cccnc1CC(C)NC(=O)c1cc(COc2cncc(Cl)c2)on1 (configuration not stated)

Screen / compound no. | 73 | 74 | 75 | 76 | 77 | 78 | 79 | 80
FEN1 inhibitor | -1% | -7% | -12% | -17% | 10% | -21% | 1% | -2%
GCN5L2 inh | 1% | 1% | -7% | -3% | -11% | -7%[0.501 µM] | -4% | -3%

[81] Cc1cc(C)nc(SCC(=O)Nc2ncc3c(n2)CCCC3=O)n1
[82] O=C(Cn1c(C(F)(F)F)nc2ccccc21)N1CCCC1
[83] Cc1ccc(-c2nc3ccccc3c(=O)n2-c2c(C)n(C)n(-c3ccccc3)c2=O)cc1
[84] O=C(Cn1ncc2c1-c1ccccc1OC2)N1CCN(c2ccccn2)CC1
[85] COc1ccc(CNC(=O)C2CCN(S(=O)(=O)N3CCCCC3)CC2)c(OC)c1
[86] CC(=O)c1cccc(OCc2cc(C(=O)N(C)Cc3ccc(C)o3)no2)c1
[87] O=C(CSc1nnc(C2COc3ccccc3O2)o1)Nc1ccc(F)cc1Cl (configuration not stated)
[88] Cc1cc(C)c(S(=O)(=O)Nc2ccc(-c3ccc(N4CCCCC4)nn3)cc2)c(C)c1

Screen / compound no. | 81 | 82 | 83 | 84 | 85 | 86 | 87 | 88
FEN1 inhibitor | 6% | 0% | -1% | 13% | 17% | 0% | 15% | 10%
GCN5L2 inh | 1% | -2% | -12% | -4% | -2% | -13% | -4% | -12%

[89] O=C1Nc2ccc(F)cc2C12SCCS2
[90] CCOC(=O)c1ccccc1NC(=O)/C(C)=C/C(=O)O
[91] Cc1nnc(NC(=O)CCC(=O)NC2CCCCCCC2)s1
[92] CC1CCCCN1C(=O)c1cc(-c2ccc(Br)cc2)on1 (configuration not stated)
[93] O=C1CC(C(=O)N(c2ccccc2)C(C(=O)NC2CCCC2)c2ccncc2)CS1 (configuration not stated)
[94] C[C@H](NC(=O)N1CCn2c1nc1ccccc12)C(=O)NCc1ccc2c(c1)OCO2
[95] COCCNC(=O)C1c2cc(OC)c(OC)cc2C(=O)N(C)C1c1cccnc1 (configuration not stated)
[96] N=c1ccn2c(n1)OC1C(O)C(CO)OC12 (configuration not stated)
[97] CN(C(=O)CSc1nnc(COc2ccccc2F)n1N)C1CCS(=O)(=O)C1 (configuration not stated)
[98] CN1CCN(CCCC(=O)c2ccc(C3CCCC3)cc2)CC1

Screen / compound no. | 89 | 90 | 91 | 92 | 93 | 94 | 95 | 96 | 97 | 98
FEN1 inhibitor | -9% | 1% | 4% | -5% | 19% | -23% | -6% | -1% | -5% | -1%
GCN5L2 inh | -1% | 30% | -1% | 1% | -26% | -1% | -6% | 1%&-1%&-20% | -6% | 2%

Screening results deposited in PubChem by National Center for Advancing Translational Sciences (NCATS).

Only part of the results is shown; most or all hits stand in other tables.
